# Bioassay records (PubChem)
# E coli growth – E. coli growth inhibition; actives 0.21% (n = 330,000); Escherichia coli growth, OD600, 23 h; hits give low values; OD600 absorbance (no concentration beside the values);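 active means OD600 absorbance below the run mean of sample wells minus 3.6 SD, in any replicate, cut at about 0.56 in these data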;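 further: stock transfer was 300 nL into about 60 µL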
# Beta2AR agonist – activates human beta-2 adrenergic receptor causing internalization. P07550. Am2.2-beta2AR cells, FAP receptor internalization, flow cytometry; reference of the scale not given here. response, % (no concentration beside the values). actives 0.43% (n = 340,000);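 active means response above a set limit, near 3 SD of response in nonfluorescent compounds, cut at about 42% in these data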;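 further: stock transfer was 100 nL into about 11 µL; a reference agonist was the positive control; negative values mostly stem from fluorescent compounds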
# UCH37 inh – inhibitors of human deubiquitinating enzyme UCH37; Q9Y5K5; purified proteasome/UCH37, Ub-AMC cleavage fluorescence; inhibition, % (no concentration beside the values); actives 0.33% (n = 330,000); AID 588478;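 active means mean of two replicates above 20%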;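 further: 0% = compound-free wells with enzyme and 100% = wells lacking proteasome; stock transfer was 100 nL into about 20 µL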
# Target sequence (Q9Y5K5 whole entry, looked up): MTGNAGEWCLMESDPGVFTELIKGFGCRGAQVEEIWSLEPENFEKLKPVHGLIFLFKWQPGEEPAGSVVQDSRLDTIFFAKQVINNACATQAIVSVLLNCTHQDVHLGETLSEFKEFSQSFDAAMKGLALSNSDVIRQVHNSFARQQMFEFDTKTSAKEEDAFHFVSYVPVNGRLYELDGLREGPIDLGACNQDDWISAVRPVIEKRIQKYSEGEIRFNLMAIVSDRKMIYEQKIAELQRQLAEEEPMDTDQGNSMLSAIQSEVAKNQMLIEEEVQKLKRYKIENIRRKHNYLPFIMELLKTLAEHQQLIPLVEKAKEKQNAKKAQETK
#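 System: Proteasome-associated human UCH37 deubiquitinase; Input: 0.15 nM proteasome in added enzyme buffer; Also added: Ub-AMC substrate from 1 µM stock; Incubation: 30 min compound-proteasome preincubation then 25 min substrate reaction, room temperature; Detection: fluorescence, ex 355 nm, em 460 nm; Read-out: % inhibition of Ub-AMC cleavage fluorescence; Benchmarks: no-proteasome and no-compound wells.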
# FGF22 binding – FGF22 (human) thermal shift binding | Q9HCT0 | recombinant FGF22 thermal shift, SYPRO orange fluorescence; percent of sucrose octasulfate shift, DMSO zero | calls only at 9.99 µM | actives 1.5% (n = 340,000) | AID 651658;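 active means melting point raised past a set limit in the mean and every replicate; three in four hits are not shown here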
# HNF4A DNA FP – change in binding of human HNF4 alpha to DNA; activity change, % at 10 µM; actives 0.3% (n = 360,000); HNF4a-FITC DNA binding, fluorescence polarization, 1 h; P41235; in the data active means activity change above about 30%, passing the limit was not always enough;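 further: controls were the assay level and a saturating level of protein; the project sought stronger binding though the title names inhibitors; some compounds called inactive have numbers as strong as hits; positive values seem to mean higher polarization but the record does not say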
# Target sequence (P41235 whole entry, looked up): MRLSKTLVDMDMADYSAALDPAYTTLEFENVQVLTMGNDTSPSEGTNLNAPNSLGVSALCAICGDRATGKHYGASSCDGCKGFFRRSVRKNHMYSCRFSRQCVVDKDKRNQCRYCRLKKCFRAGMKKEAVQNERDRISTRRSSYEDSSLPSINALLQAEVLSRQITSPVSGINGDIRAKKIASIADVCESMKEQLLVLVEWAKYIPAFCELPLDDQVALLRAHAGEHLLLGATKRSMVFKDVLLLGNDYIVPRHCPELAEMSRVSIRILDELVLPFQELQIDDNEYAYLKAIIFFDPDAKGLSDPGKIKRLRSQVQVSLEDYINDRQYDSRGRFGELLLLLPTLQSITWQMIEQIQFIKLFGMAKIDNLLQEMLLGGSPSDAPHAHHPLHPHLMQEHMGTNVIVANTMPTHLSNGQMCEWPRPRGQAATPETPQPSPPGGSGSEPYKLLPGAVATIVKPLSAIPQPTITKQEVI
# rRNA inh HTS – inhibits bacterial ribosomal RNA function over humanized ribosomes; E. coli WT GFP vs humanized-ribosome RFP mutants, fluorescence, 24 h; hits give low values; DMSO median 0, no signal -100; GFP signal change (wild-type ribosome), % (concentration not given with the values); actives 1.6% (n = 350,000); AID 720706;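 active means significant combined selectivity score with lowered wild-type GFP, culture density cut under 30%, mutant RFP and density less affected; inactive means any of these conditions unmet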; further: one replicate is shown; some compounds called inactive have numbers as strong as hits
# ALR H2O2 inh – blocks human ALR sulfhydryl oxidase activity; purified ALR, DTT oxidation, H2O2 HRP-luminol luminescence; AID 485317; inhibition, % (concentration not given with the values); actives 3.8% (n = 290,000); P55789;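 active means mean and each replicate at 75% or more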;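 further: stock transfer was 7.5 nL into about 7.5 µL; 0% = neutral wells and 100% = wells with inactivated enzyme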
# Target sequence (P55789 whole entry, looked up): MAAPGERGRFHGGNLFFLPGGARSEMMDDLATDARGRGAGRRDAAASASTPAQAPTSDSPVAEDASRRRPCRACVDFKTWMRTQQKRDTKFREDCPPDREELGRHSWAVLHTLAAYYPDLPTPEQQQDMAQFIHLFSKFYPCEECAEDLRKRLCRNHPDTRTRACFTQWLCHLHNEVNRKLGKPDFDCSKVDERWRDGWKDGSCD
# rRNA inh HTS OD600 – further read-out of rRNA inh HTS, marked with its call; OD600 change, %; measured here: OD600 growth;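 optical density of the mix in the first replicate; 0 = DMSO median and -100 = no signal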
# rRNA inh HTS RFP – second read-out of rRNA inh HTS, no call of its own (marks repeat the call); RFP signal change, %; measured here: RFP humanized mutant strains;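 first replicate; 0 = DMSO median and -100 = no signal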
# * marks the source's active call; other numbers are inactive results; i = inactive; nt = not tested or not shown.
SMILES,E coli growth,Beta2AR agonist,UCH37 inh,FGF22 binding,HNF4A DNA FP,rRNA inh HTS,rRNA inh HTS OD600,rRNA inh HTS RFP,ALR H2O2 inh
Cc1cccc(C(=O)NC(=S)NNC(=O)COc2c(C)cccc2C)c1,0.67,13,6.5,nt,2.9,nt,nt,nt,66
CCOC(=O)c1sc(NC(=O)CN2C(=O)NC3(CCCCCCC3)C2=O)c(C(=O)OCC)c1C,0.69,10,-1.2,i,-0.6,13,7,-0.1,-7
C=CCc1cccc(CNc2nc3ccccc3n2C(C)C)c1O,0.61,3,2.9,nt,3.3,nt,nt,nt,17
Cc1cc(NC(=O)C(=O)NCCN2CCN(C(=O)c3cccs3)CC2)ccc1Br,0.75,-10,5.1,nt,2.0,nt,nt,nt,-3
O=S(=O)(c1ccc(Cl)cc1)N(Cc1ccccn1)Cc1ccccn1,0.63,-5,2.1,i,3.8,-1,-8,0.8,nt
Cc1ccc2c(c1)N(CC(=O)Nc1ccc3c(c1)OCCO3)C(=O)CO2,0.67,-3,6.5,nt,-5.2,nt,nt,nt,0
C=CCNC(=S)N/N=C/c1ccc(N(CC)Cc2ccccc2)cc1,nt,31,nt,nt,2.3,nt,nt,nt,6
COc1ccc(OCCCc2c(C)n[nH]c2C)cc1,0.67,4,1.0,nt,4.5,nt,nt,nt,-3
CCCNC(=O)C(Cc1ccc(I)cc1)NC(=O)c1ccc2ccccc2n1 (configuration not stated),0.72,8,0.2,i,6.8,9,10,-1.4,1
O=C(Nc1cccc(-c2cn3c(n2)SCC3)c1)c1ccc2c(c1)OCO2,0.74,-11,3.6,i,2.6,3,-14,23,0
Cc1cc(C)nc(NC(=NCCc2c[nH]c3ccccc23)NC(=O)Nc2ccc(Cl)c(Cl)c2)n1,0.71,-4,5.9,i,1.9,-20,-25,5.0,-5
O=c1cc(N2CCc3ccccc3C2)[nH]c(=O)n1C1CCCCC1,0.73,1,8.7,nt,-0.4,nt,nt,nt,-3
c1ccc(-c2nnc3nc(N4CCCCC4)nc(N4CCCCC4)n23)cc1,nt,-11,nt,i,-2.2,16,18,0.9,nt
COc1ccc2oc3c(ccc[n+]3C)c(=O)c2c1,nt,nt,nt,i,5.4,3,2,0.3,nt
Cc1cc(C)c(NC(=O)c2ccc[n+](Cc3ccc([N+](=O)[O-])cc3)c2)c(C)c1,0.65,-4,3.4,nt,-0.9,nt,nt,nt,-3
CC[N+](CC)(CC=C(C)C)CC(=O)OC,0.72,13,2.6,nt,-0.4,-3,7,-3.6,-5
Cc1ccnc2nc(C(=O)OC(C)C(=O)NCc3ccccc3)nn12 (configuration not stated),0.72,-3,2.2,i,0.7,4,11,0.9,1
COc1cnn(-c2ccc(C)cc2)c(=O)c1Br,0.68,-3,1.3,nt,0.4,12,5,-2.7,-4
COCc1cc(=O)[nH]c(/N=C(\N)Nc2ccc(Oc3ccccc3)cc2)n1,nt,-27,nt,nt,-0.8,nt,nt,nt,-3
CC(C)C1(C(C)C)OC(=O)c2ccccc21,0.69,4,-5.6,nt,-2.8,nt,nt,nt,-3
COc1ccc(OC)c(NC(=O)CCCN2C(=S)NC(C)(C)CC2C)c1 (configuration not stated),0.7,-9,-11,i,-0.8,0,11,0.0,-5
CC(C)CN(CCNC(=O)CN1C(=O)COc2ccc(S(=O)(=O)N3CCC(C)CC3)cc21)CC(C)C,0.69,-3,2.2,i,1.2,0,10,-3.4,0
O=C(NCC1CC1)c1ccc2sc([C@@H]3O[C@H](CO)[C@H](O)[C@H](O)[C@H]3O)nc2c1,nt,nt,nt,i,2.4,6,19,-1.2,nt
O=C(C[n+]1ccccc1)N1CCCc2ccccc21,0.65,4,-0.3,i,0.2,-6,-12,-3.8,-13
COc1ccc(NC(=S)NCCN2CCC(C)CC2)cc1,nt,9,nt,i,-0.6,27,12,1.3,0
CCn1ccc(C(=O)Nc2ccccc2SC)n1,0.67,3,1.9,i,-3.2,-1,-1,-0.6,1
COc1ccc(NC(C)=O)cc1S(=O)(=O)N(C)Cc1c(C)nn(-c2ccccc2)c1C,0.69,10,0.0,i,1.2,-5,-5,-0.7,nt
O=S(c1ccccc1)c1ccccc1,0.6,18,2.2,i,4.1,3,3,-1.1,nt
O=C(NC1CCCC1)c1cc(S(=O)(=O)N2CCOCC2)c(Cl)cc1Cl,0.72,18,4.6,i,0.3,17,11,2.0,5
CCCNC(=O)c1ccc(N2CCC3(CC2)CC(c2ccccc2)=NO3)c(NC(=O)c2cccc(C)c2)c1,0.72,5,2.6,i,-3.0,1,16,-4.0,-1
CC(C)Cc1nnc(NC(=O)c2ccc([N+](=O)[O-])cc2)s1,0.67,-1,1.6,nt,-1.2,nt,nt,nt,30
CCN1CCN(c2cc(C)c3cc(NC(=S)NCCCN4CCc5ccccc5C4)ccc3n2)CC1,0.69,26,-3.4,i,3.6,8,-2,-9.6,2
CCOc1ccc(NC(=O)CN(C)C(=O)c2cc(-c3ccncc3)nc3ccccc23)cc1OCC,0.65,9,1.0,i,2.0,7,5,0.5,-5
CCOc1ccccc1C1NC(=O)CCC1[N+](=O)[O-] (configuration not stated),0.69,3,0.5,i,1.2,7,11,1.2,-5
COc1ccc(-c2cn3c(C)c(C(=O)N4CCN(c5ccccc5F)CC4)sc3n2)cc1,0.73,18,1.7,i,-1.0,-6,-10,-4.3,-2
COc1ccc(-c2cc(C(F)(F)F)n3ncc(C(=O)N4CCCCC4c4cccnc4)c3n2)cc1 (configuration not stated),0.72,2,-92,i,0.8,12,4,1.4,16
Cc1ccc(S(=O)(=O)N2CCN(C(=O)COc3ccc(C)nc3[N+](=O)[O-])CC2)c(C)c1,0.64,-16,1.9,i,3.1,-1,-7,-2.1,-6
Cc1c(C(=O)NN)[nH]c2ccc([N+](=O)[O-])cc12,0.69,-6,2.0,i,3.1,0,5,-0.4,2
CSc1nccc(Nc2ccccc2)c1C#N,0.73,-8,0.8,nt,0.4,nt,nt,nt,-2
O=C(CC(c1ccc(F)cc1)c1ccco1)N1CCOCC1 (configuration not stated),0.73,-11,3.7,nt,3.8,nt,nt,nt,8
COc1ccc(OC)c(S(=O)(=O)N2CCC(C(=O)NCc3ccccn3)CC2)c1,0.7,1,1.4,i,0.0,1,2,-0.1,-1
CN1CCN(c2nc3ccccn3c(=O)c2C=O)CC1,0.63,-9,-6.4,nt,-2.4,nt,nt,nt,-10
O=C(Nc1cccc(OCC(=O)N2CCOCC2)c1)c1cccc([N+](=O)[O-])c1,0.67,-2,0.4,i,-2.0,13,3,-2.6,-12
Cc1ccc(S(=O)(=O)N2[C@@H](c3ccc(Br)cc3)C(C(=O)O)=CC[C@H]2c2ccc(Cl)c(Cl)c2)cc1,0.66,4,8.4,nt,-5.0,-5,-50,5.2,nt
CCCCCCCCCOC1OC(CO)C(O)C(O)C1NC(C)=O (configuration not stated),0.68,14,1.4,i,6.0,14,16,2.5,-12
Cc1ccc(OC(=O)C23CC4CC(CC(C4)C2)C3)c(C)n1,0.67,6,-9.6,nt,2.4,nt,nt,nt,8
O=C(O)c1ccc2c(c1)OCCCO2,0.67,-1,-1.6,i,-3.0,4,9,2.8,-3
CCCCN1C=C(C(=O)OC)C(c2ccccc2Cl)C(C(=O)OC)=C1,0.68,4,-98,i,0.3,-2,5,-2.9,11
CC(C)(C)c1nnc(NC(=O)CCC2CCCCC2)s1,nt,nt,nt,i,-0.3,5,-4,-0.9,nt
CCOC(=O)C1CCN(c2ncnc3c2oc2ccc(Cl)cc23)CC1,0.68,13,-3.3,nt,2.9,nt,nt,nt,-3
# The list goes on.
SMILES,E coli growth,Beta2AR agonist,UCH37 inh,FGF22 binding,HNF4A DNA FP,rRNA inh HTS,rRNA inh HTS OD600,rRNA inh HTS RFP,ALR H2O2 inh
FC(F)(F)c1cnc(N2CCN(C(=S)NCc3ccccc3)CC2)c(Cl)c1,0.66,-10,2.8,i,-0.8,-9,3,-0.1,-6
Cc1cnc(NC(=O)[C@H](C)N2C(=O)C3CCCCC3C2=O)s1 (some centres not stated),0.7,11,3.7,i,2.2,9,-5,-1.3,-4
CCC(N=c1cc(-c2ccc(OC)cc2)oc2ccc(C)cc12)C(=O)O (configuration not stated),0.7,-8,-340,nt,-0.1,nt,nt,nt,-7
C=CCc1c(C)nc2ccc(C(=O)OCC)cc2c1Cl,0.7,-4,1.1,i,1.1,-25,-29,-2.0,5
CC(C)(CNC(=O)c1ccc(Cl)c(S(=O)(=O)N2CCc3ccccc3C2)c1)N1CCOCC1,0.64,5,-2.7,nt,0.1,-30,-28,-3.9,-2
CCn1c(CCCOc2ccc(Cl)cc2Cl)nnc1SCC(=O)Nc1cc(F)ccc1C,0.7,-6,4.0,i,-1.2,9,1,1.4,-6
O=C(O)c1nc2ccccc2nc1C(=O)O,0.64,-8,2.3,nt,2.2,1,9,0.9,-7
COc1cc(Br)ccc1C1CC(=O)C(C)C(c2ccc(Br)cc2OC)N1 (configuration not stated),0.72,2,5.1,i,4.5,0,2,-0.7,-37
Cc1cccc(C)c1NC(=O)C1(C)CCC(=O)N1CCCn1ccnc1 (configuration not stated),nt,nt,nt,i,6.3,-2,2,-3.7,nt
c1ccc(CCc2ccncc2)cc1,0.62,-1,6.0,i,-1.0,18,15,0.5,-15

# Entries of single compounds as entered above. Order of screens: E coli growth, Beta2AR agonist, UCH37 inh, FGF22 binding, HNF4A DNA FP, rRNA inh HTS, rRNA inh HTS OD600, rRNA inh HTS RFP, ALR H2O2 inh
# Cc1cnc(NC(=O)[C@H](C)N2C(=O)C3CCCCC3C2=O)s1 (some centres not stated) across the screens: 0.7, 11, 3.7, i, 2.2, 9, -5, -1.3, -4
# COc1cc(Br)ccc1C1CC(=O)C(C)C(c2ccc(Br)cc2OC)N1 (configuration not stated) across the screens: 0.72, 2, 5.1, i, 4.5, 0, 2, -0.7, -37
# CC(C)(CNC(=O)c1ccc(Cl)c(S(=O)(=O)N2CCc3ccccc3C2)c1)N1CCOCC1 across the screens: 0.64, 5, -2.7, nt, 0.1, -30, -28, -3.9, -2
# O=C(O)c1nc2ccccc2nc1C(=O)O across the screens: 0.64, -8, 2.3, nt, 2.2, 1, 9, 0.9, -7

# (more compounds)
SMILES,E coli growth,Beta2AR agonist,UCH37 inh,FGF22 binding,HNF4A DNA FP,rRNA inh HTS,rRNA inh HTS OD600,rRNA inh HTS RFP,ALR H2O2 inh
CNC(=O)c1c2c(nc3ccc(Br)cc13)CCCC2,0.65,7,2.1,i,0.1,-14,-24,-2.8,-2
CCOc1ccc(CN2CCN(c3ncnc4scc(-c5ccccc5)c34)CC2)cc1,0.67,-6,5.9,i,5.2,-1,5,2.6,-4
CCOC(=O)[C@]12CCCC=C1N(Cc1cccc3ccccc13)C(=O)[C@H](CC(=O)NCCc1ccccc1OC)C2,nt,nt,nt,i,0.4,9,9,1.8,nt
COc1ccc(-n2ncc3c(=O)n(CC(=O)OCc4ccccc4)cnc32)cc1,0.71,-18,1.4,nt,2.1,nt,nt,nt,-1
Cc1cc2cc(CNC(=O)CCC(=O)O)ccc2n1C,0.69,-2,-0.5,i,-1.2,10,11,9.5,-19
Clc1ccc(CSc2nnc(-c3ccncc3)o2)cc1,0.71,-4,2.1,nt,-0.8,nt,nt,nt,-5
COc1cccc(NC2=NCC(=O)N2Cc2cccs2)c1,0.72,2,4.9,nt,-3.0,3,0,-1.9,-10
O=C1CCC(C(=O)N2CCCC(Nc3ccc(F)cc3)C2)=NN1 (configuration not stated),0.71,-7,1.2,i,-1.3,22,21,4.9,82*
O=S(=O)(c1cccs1)N1CN(CC2CCCO2)c2nc3ccccc3nc21 (configuration not stated),0.69,2,4.0,nt,-2.5,-2,-11,15,-3

# These rows are one share of the data; rates above refer to the full screens.
